Screening data (PubChem)
Sfp inh – qHTS Assay for Inhibitors of Bacillus subtilis Sfp phosphopantetheinyl transferase (PPTase); 4'-phosphopantetheinyl transferase ffp (Bacillus subtilis), Q9F4F7; Biochemical Sfp PPTase activity, qHTS; Potency, µM, for inactives: max response, negative = inhibition, usual class: inhibitors; 310,000 tested, 3.5% active; AID 1490, 2009; active means well fitted inhibition curve with a large enough effect; inconclusive means small, poorly fitted or top-dose-only effect, or another doubt; inactive means no such curve, though single readings can be large or run the other way;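 further: the enzyme is Sfp with the accession as filed and its product quenches rhodamine fluorescence; potency means the concentration at half of the fitted maximal effect; 0% = enzyme reaction without inhibitor and -100% = no enzyme wells; top concentration of the series not given in the record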
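Fluorescence-quenching assay: 15 nM Sfp-PPTase preincubated 15 min at room temperature with compound, then 5 uM rhodamine-CoA and 12.5 uM BHQ-2-labelled YbbR peptide added. Fluorescence (ex 525/em 598 nm) read at start and after 30 min; difference gives rate.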
TRPV1 potentiator – HTS Assay for Compounds that Act as Potentiators of the Vanilloid Receptor 1; 320,000 tested, 0.02% active; potentiation, % at 8.33 µM; TRPV1-expressing cells, Fluo-8 calcium influx, capsaicin EC20 potentiation; host cell line not named in the record; control for the full effect not named in the record; AID 540277, 2011; active means potentiation above 80%; inconclusive means 30% to 80%; inactive means below 30%; further: 0% is about no effect
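TRPV1-expressing cells were cultured overnight at 35.5C and loaded with Fluo-8 calcium dye for 40 to 90 min at room temperature. After a 10 s baseline, compound was added and calcium influx was read kinetically for 3 min (ex 480/em 520 nm).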
Menin-MLL FL inh – qHTS Assay for Inhibitors Targeting the Menin-MLL Interaction in MLL Related Leukemias: Competition With Fluorescein Labeled MLL-derived Peptide; 290,000 tested, under 10 active; Fluorescence polarization, fluorescein-MLL peptide displacement from menin; FP activity change, % at 61.4 µM; inconclusive = falling polarisation curve, or a change in total fluorescence; inactive = total fluorescence flat and polarisation flat or rising; no compound was filed as active; the % refers to the polarisation; negative = inhibition;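 further: % of control where 0% means no effect; inhibitors lower the polarisation; unlabelled MLL peptide was the positive control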
ClpP mod – qHTS Assay for Activators of ClpP; ATP-dependent Clp protease proteolytic subunit (Bacillus subtilis (strain 168)), P80244; Potency, µM (highest dose often 57.5 µM), without a hit: at the highest dose activity change, negative = active; 340,000 tested, 1.9% active; AID 651965, 2013; purified B. subtilis ClpP, FRET peptide cleavage, 20 min; active = well fitted falling curve with a large enough effect; inconclusive = small, poorly fitted or top-dose-only effect; inactive = no such curve, though single readings can be large or run the other way; further: potency means the concentration at half of the fitted maximal effect; the source files actives as falling curves though it sought activators and does not explain the sign; nearly all actives have a fitted effect of over 65% in size; many hits overshoot -100%
Target sequence (P80244 whole entry, looked up): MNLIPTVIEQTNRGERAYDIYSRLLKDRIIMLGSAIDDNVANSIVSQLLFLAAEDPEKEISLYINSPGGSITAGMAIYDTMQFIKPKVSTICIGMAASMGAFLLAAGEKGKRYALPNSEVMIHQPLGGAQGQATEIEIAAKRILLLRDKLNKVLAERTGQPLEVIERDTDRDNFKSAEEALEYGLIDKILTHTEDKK
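ClpP 10 microg/mL final, pH 8 Tris/KCl buffer with BSA, glycerol, Tween-20; compound pinned in; FRET-FV substrate; RT 20 min; Ex320/Em430; ΔFRET vs ADEP 5.8 microM, DMSO, no enzyme.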
TRPML1 blocker – qHTS for Inhibitors of the Human Mucolipin Transient Receptor Potential 1 (TRPML1) | TRPML1-inducible cells, Ca2+ dye fluorescence, FDSS; stronger effect = lower value; inhibition of EC80 agonist-evoked calcium signal | 390,000 tested, 0.02% active | Mucolipin-1 (Homo sapiens), Q9GZU1 | activity change, negative = inhibition, % (test concentration not listed); in the data active means activity change below about -50%; inconclusive means about -30% to -50%; inactive means above about -30%;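 further: stimulus is agonist 54-4 at its EC80 concentration; on the % scale 0 is the no-effect control and ±100 the full control effect; compound concentration not given in the record; the text of the record puts the active cut at -80%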
Target sequence (Q9GZU1 whole entry, looked up): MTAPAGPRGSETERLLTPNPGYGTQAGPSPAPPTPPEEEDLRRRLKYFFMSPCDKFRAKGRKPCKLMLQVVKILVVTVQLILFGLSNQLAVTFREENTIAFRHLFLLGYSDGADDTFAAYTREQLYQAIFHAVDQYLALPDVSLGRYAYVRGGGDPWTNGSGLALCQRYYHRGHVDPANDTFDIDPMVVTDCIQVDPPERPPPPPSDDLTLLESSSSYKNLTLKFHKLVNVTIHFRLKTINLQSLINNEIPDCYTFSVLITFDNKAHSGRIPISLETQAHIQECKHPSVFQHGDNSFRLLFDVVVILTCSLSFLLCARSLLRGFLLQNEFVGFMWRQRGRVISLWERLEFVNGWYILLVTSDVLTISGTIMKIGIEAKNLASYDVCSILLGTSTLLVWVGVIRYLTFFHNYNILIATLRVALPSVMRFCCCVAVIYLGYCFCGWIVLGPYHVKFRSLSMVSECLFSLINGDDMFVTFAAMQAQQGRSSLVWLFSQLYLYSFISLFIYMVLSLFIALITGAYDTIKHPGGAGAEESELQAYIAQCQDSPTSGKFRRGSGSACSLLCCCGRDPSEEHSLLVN
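TRPML1-DL cells, Tet-induced overnight (~16 h, 37 °C) at 1,500 cells/well, were loaded with Ca8 no-wash dye plus quencher for 45-90 min at room temperature. Compounds were pinned during FDSS kinetic reading; agonist 54-4 at EC80 (4 uM final) then added.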
gsp agonist – qHTS for Agonist of gsp, the Etiologic Mutation Responsible for Fibrous Dysplasia/McCune-Albright Syndrome: qHTS. gsp mutant cells, cAMP HTRF, 30 min; control for the full effect not named in the record. Potency, µM (highest dose often 76.9 µM), inactives show top-dose activation (cAMP increase), most hits filed as activators. 340,000 tested, 0.13% active. AID 624287, 2012; active = well fitted activation curve with a large enough effect; inconclusive = small, poorly fitted or top-dose-only effect, or another doubt; inactive = no such curve, though single readings can be large or run the other way; cell line not stated here;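 further: phosphodiesterase inhibitor Ro 20-1724 added with compounds to block cAMP breakdown; potency means the concentration at half of the fitted maximal effect; nearly all actives have a fitted effect of over 60% in size; about a fifth of the inactives were tested at one dose only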
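Cells stably selected in G418 were plated at 2000/well, grown 16-24 hr, then given compounds in DMSO with the PDE inhibitor […] (300 uM solution added) for 30 min at 37C; cAMP was read by HTRF.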
gsp antag – qHTS for Antagonists of gsp, the Etiologic Mutation Responsible for Fibrous Dysplasia/McCune-Albright Syndrome: qHTS | gsp-mutant cells, cAMP HTRF, 30 min; control for the full effect not named in the record | Potency, µM (top dose mostly 76.9 µM), inactives show at the highest dose activity change, negative = inhibition, hits mostly inhibitors | 340,000 tested, 0.4% active | AID 624288, 2012; active = falling curve of any shape with a large fitted effect; inconclusive = falling curve, mostly with a smaller effect; inactive = flat or rising curve; cell line not stated here;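 further: intracellular cAMP measured with PDE inhibitor Ro 20-1724 present during compound exposure; potency means the concentration at half of the fitted maximal effect; on the % scale 0 is the no-effect control and ±100 the full control effect; nearly all actives have a fitted effect of over 65% in size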
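G418-selected cells were plated in DMEM/10% FBS for 16-24 h at 37C, then treated with compounds plus the PDE inhibitor […] (300 uM solution added) for 30 min at 37C. Intracellular cAMP was measured by HTRF after 30 min lysis at room temperature.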
Numbers without * were called inactive; ? = inconclusive; nt = not tested or not shown; [ ] = dose if it differs, or a comment.

SMILES	Sfp inh	TRPV1 potentiator	Menin-MLL FL inh	ClpP mod	TRPML1 blocker	gsp agonist	gsp antag
O=C(O)C1C2C=CC(C2)C1C(=O)NCCc1cccc(Cl)c1 (stereo not given)	10%	20	2.0	1.2%	33	28%	2%
Cc1ccc(C)c(N(CC(=O)NCc2ccco2)C(=O)CCC(=O)Nc2ccccn2)c1	?	-8	0.5	-1.6%	-12	23%	-4%[15.4 µM]
CC(=O)c1c(C)[nH]c(C(=O)OCC(=O)N2CC(C)OC(C)C2)c1C (stereo not given)	nt	4	nt	-20%	-6	-75%[inhibitor]	-5%
CCc1ccccc1NC(=O)COC(=O)c1c(C)nsc1NC	nt	-4	nt	3.8%	4	-68%[inhibitor]	21%
Oc1cc(Cl)cc(Cl)c1Cl	nt	6	nt	2.2%	-9	nt	-16%
O=C(Nc1cccc(O)c1)c1ccc(S(=O)(=O)N2CCCCCC2)cc1	5%	-12	-2.7	-1.1%	8	-3%	-8%
COc1cc(CCC(=O)OCC(=O)N2CCc3ccccc32)cc(OC)c1OC	7%	0	1.4	-1.2%	3	8%	-13%
Cc1ccnc(Nc2nc(-c3ccc(O)cc3O)cs2)c1	40µM*	7	1.0	-1.0%	12	-10%	-15%
O=C(NCc1ccccc1)C(c1ccc(O)cc1)N(C(=O)c1cnccn1)c1ccccc1 (stereo not given)	7%	17	-0.1	nt	-1	-16%	-2%
Cc1ccc(S(=O)(=O)NN=C2CC(C)(C)OC2(C)C)cc1	nt	nt	nt	0.3%	9	36%	nt
COc1ccc(S(=O)(=O)N2CCOC2CNC(=O)C(=O)NCc2ccccc2Cl)cc1 (stereo not given)	7%	-6	2.9	1.4%	7	-28%	9%
CCc1ccc(C(C(=O)NCc2ccc(F)cc2)N(C(=O)c2csnn2)C2CC2)cc1 (stereo not given)	7%	0	-2.4	nt	22	3%	-9%
O=C(Nc1ccc(Cl)c(C(F)(F)F)c1)c1ccco1	9%	-8	0.0	-0.8%	24	-10%	-24%
N#Cc1ccccc1CN1C(=O)NC(Cc2c[nH]c3ccccc23)C1=O (stereo not given)	9%	-1	1.4	nt	3	-7%[15.4 µM]	-1%
CCN1C(=O)N[C@@H](c2cccc(C(F)(F)F)c2)[C@H](C(=O)OC)[C@H]1C	-10%	nt	1.0[11.7 µM]	-1.9%	-17	20%	8%
COc1ccc(CCNC(=O)CSc2ccc(-c3ccccc3)nn2)cc1OC	9%	-6	1.3	-0.4%	-2	8%	0%
COCc1nnc(N)s1	17%	-3	4.8	3.2%	9	-16%	10%
O=C1CC(/C=C/c2ccco2)=Nc2ccccc2N1	-23%	-2	?	-4.1%	-6	1%	-8%
CN(Cc1cccs1)C(=O)C1CC(=O)N(Cc2ccccc2)C1 (stereo not given)	nt	?	nt	1.3%	9	-55%[inhibitor]	7%
O=C(NCC1CCCO1)C1CCCN(S(=O)(=O)c2cc(Cl)ccc2Cl)C1 (stereo not given)	21%	1	1.2	-0.5%	25	-47%[inhibitor]	-8%
NS(=O)(=O)c1ccc(NC(=O)Nc2ccccc2)cc1	15%	-11	2.6	nt	2	-2%[15.4 µM]	14%
COCCCNC(=O)C1CC(=O)N(CCc2ccc(OC)c(OC)c2)C1 (stereo not given)	22%	3	5.9	-1.5%	17	2%	20%
C[C@H](CO)N1C[C@H](C)[C@@H](CN(C)S(=O)(=O)c2cn(C)cn2)Oc2ccc(NC(=O)C3CC3)cc2C1=O	nt	nt	nt	0.1%	-16	nt	8%
O=C(/C=C/c1ccc(Cl)cc1)NCCCn1ccnc1	-28%	?	3.3	0.1%	-8	?	0%
COc1ccc(NC(=O)CN(C)C(=O)C2=COCCO2)cc1	nt	8	nt	-3.9%	28	18%[15.4 µM]	3%
O=C(NCCc1nc2ccccc2[nH]1)c1ccco1	16%	-6	3.5	-0.9%	-10	17%	4%
Cc1c(C(=O)NCCSCc2ccccc2Cl)cccc1[N+](=O)[O-]	3%	-18	-2.5	-0.3%	3	-4%	-26%
Cc1oc(C(C)(C)C)cc1C(=O)Nc1cccc(/C=C/C(=O)O)c1	5%	21	4.2	-3.7%	-7	3%	?
O=C(NCc1ccncc1)c1cccc(S(=O)(=O)NCc2ccccc2)c1	1%	1	nt	-0.4%	-6	34%	12%
O=C1NC(=O)C2(CCC(C3CCCCC3)CC2)N1 (stereo not given)	nt	nt	nt	1.1%	7	3%[15.4 µM]	11%

Look-ups from the list.
For TRPML1 blocker, `Cc1oc(C(C)(C)C)cc1C(=O)Nc1cccc(/C=C/C(=O)O)c1` is entered as -7
For ClpP mod, `O=C1NC(=O)C2(CCC(C3CCCCC3)CC2)N1` (stereo not given) is entered as 1.1%

Carrying on:
SMILES	Sfp inh	TRPV1 potentiator	Menin-MLL FL inh	ClpP mod	TRPML1 blocker	gsp agonist	gsp antag
O=C1CCCN2N=C(SCC(=O)Nc3cccc(Cl)c3)SC2=N1	6%	3	4.5	nt	-1	-1%	-8%
COc1ccc(OC)c(S(=O)(=O)N2CCC(C(=O)NCCc3ccc(OC)c(OC)c3)CC2)c1	6%	?	-0.7	-0.8%	3	10%	-5%
CCC(=O)NCC(c1cccs1)N1CCOCC1 (stereo not given)	4%	15	0.0	-0.7%	-13	-7%	2%
CCOc1ccc(C2C(C(=O)c3ccc(C)o3)=C(O)C(=O)N2CCN2CCOCC2)cc1OC (stereo not given)	-11%	-10	3.7	1.8%	?	?	10%
CCOc1cc(S(=O)(=O)N2CCN(S(=O)(=O)CC)CC2)c(OCC)cc1-n1cnnn1	9%	-6	-0.9	3.6%	-14	-1%	-16%
Cc1ccc(OCc2cc(C(=O)NCc3cn4ccccc4n3)no2)cc1C	-1%	-15	7.5	-11%	5	3%	-28%
COc1ccc(N2C(=O)C(Cc3ccccc3)NC2=S)cc1 (stereo not given)	6%	11	-5.5	nt	4	-1%[15.4 µM]	-14%
COc1cccc(-n2c(N)cc(=O)nc2SCC(=O)Nc2cc(C)on2)c1	22%	-6	-0.1	1.3%	21	2%	5%
CC(C)C[C@H](NC(=O)c1nc[nH]c1C(=O)NCCCCCN)C(=O)OCc1ccccc1	nt	nt	nt	-1.3%	36	nt	-4%
O=C(CN1CCN(S(=O)(=O)c2ccc(Cl)c(C(F)(F)F)c2)CC1)NC(=O)NC1CCCCC1	nt	nt	nt	1.2%	2	16%	-6%
Cc1cc(NS(=O)(=O)c2ccc(NC(=O)COc3ccccc3C(C)C)cc2)no1	27%	?	5.5	-3.1%	-6	17%	-17%
C[C@H](NC(=O)c1nc[nH]c1C(=O)N[C@@H](C)C(=O)OCc1ccccc1)C(=O)OCc1ccccc1	10%	28	-1.4	0.3%	11	-1%	-9%
NC(=O)[C@H]1CC2(CC(c3cccc(NC(=O)[C@H]4CCC(=O)N4)c3)=NO2)CN1C(=O)c1ccccc1 (stereo not given in full)	9%	-18	-16	-2.5%	5	-27%	13%
O=C(c1cc([N+](=O)[O-])ccc1N1CCOCC1)N1CCOCC1	15%	10	-1.5	-1.3%	-8	29%	10%
COc1ccc(NC(=O)c2ccc(-n3cnnn3)cc2)c([N+](=O)[O-])c1	12%	?	8.9	nt	0	-43%[inhibitor]	-2%

Molecules shown so far containing two or more sulfur atoms:
SMILES	Sfp inh	TRPV1 potentiator	Menin-MLL FL inh	ClpP mod	TRPML1 blocker	gsp agonist	gsp antag
O=C1CCCN2N=C(SCC(=O)Nc3cccc(Cl)c3)SC2=N1	6%	3	4.5	nt	-1	-1%	-8%
CCOc1cc(S(=O)(=O)N2CCN(S(=O)(=O)CC)CC2)c(OCC)cc1-n1cnnn1	9%	-6	-0.9	3.6%	-14	-1%	-16%

(list continues)
SMILES	Sfp inh	TRPV1 potentiator	Menin-MLL FL inh	ClpP mod	TRPML1 blocker	gsp agonist	gsp antag
CCC(=NCCc1ccc(OC)c(OC)c1)c1ccccc1O	1%	15	-2.0	-4.5%	6	2%	-5%
Cc1cc2cc(CN(CCN(C)C)C(=S)NCc3ccco3)c(=O)[nH]c2cc1C	-6%	-10	4.2	nt	-20	-2%[15.4 µM]	6%
COc1cc(C)c2c(c1OC)C(=O)CC2	nt	nt	nt	?	-12	?	5%
O=C(Cn1nnc(-c2ccccc2-n2cnnn2)n1)N1CCCCC1	15%	1	-0.4	-0.7%	-22	-12%	-1%
O=C(CN1CCc2ccccc2C1)N1CCN(S(=O)(=O)c2ccccc2)CC1	17%	-16	1.4	-2.0%	-12	29%	8%
Cc1csc(NC(=O)NC2(C(F)(F)F)Oc3ccccc3O2)n1	8.9µM*	2	3.2	0.6%	-9	-5%	1%
CC(C)(C)c1ccc(S(=O)(=O)N2CCc3nc4ccccc4c(C(=O)O)c3C2)cc1	6%	2	3.7	-1.5%	-2	-24%	13%
CCc1nnc(NC(=O)C2CCCN(S(=O)(=O)c3ccc(OC)cc3)C2)s1 (stereo not given)	-1%	-12	-2.5	nt	36	7%[15.4 µM]	nt
O=c1cc(COc2ccccc2[N+](=O)[O-])nc2sccn12	12%	?	3.8	nt	3	1%[15.4 µM]	1%
CCCn1c(N2CCN(C(=O)/C=C/C(=O)O)CC2)nc2ccccc21	9%	0	-0.3	nt	-13	12%	5%
O=C1c2ccccc2C(=O)N1CCOc1ccccc1Br	1%	-2	nt	0.4%	1	3.5µM*	-5%
O=C(c1cn(-c2ccc(Cl)c(Cl)c2)nn1)C1CC1	18%	-12	2.0	1.2%	18	-3%[15.4 µM]	4%
CCOC(=O)c1c(CSCc2ccccc2)oc2ccc(O)c(CN(C)C)c12	?	-18	-0.5	nt	58	-4%	13%
